Screening results: PubChem, National Center for Advancing Translational Sciences (NCATS)
LT uptake inh: inhibitors of anthrax lethal toxin internalization; 70,000 tested, 0.67% active; AID 912; Potency, µM (highest dose often 40 µM), for the others: at the top dose activity change, negative = inhibition, actives largely listed as inhibitors; Cells, anthrax lethal toxin internalization, FRET ratio (460/530); active = well fitted falling ratio curve with the 530 nm signal flat; inconclusive = other ratio curves, or a change in one channel alone; inactive = flat curves in the ratio and both channels; the % refers to the ratio; note: % is set by controls: 0 for no effect and ±100 for the full control effect; nearly all actives have a fitted effect of over 50% in size; tested in ME-180 cells; beta-lactamase reporter
Prx2 Sm inh: blocks S. mansoni peroxiredoxin 2 enzymatic activity; S. mansoni Prx2 activity coupled to TGR/GSH (TGR is thioredoxin glutathione reductase), NADPH fluorescence loss, qHTS; some inactives read as strong as hits; Potency, µM; 65,000 tested, 0.07% active; AID 448; active means full or partial inhibition curve with a strong effect at the top dose; inconclusive means weaker partial or single-point curve; inactive means no accepted curve; note: series up to 57 µM; many of its hits are not listed in these tables
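Purified S. mansoni TGR and Prx2 in pH 7.4 phosphate buffer with EDTA and Tween-20 were preincubated with compounds for 15 min. Further NADPH/GSH was added, then a 2.5 mM H2O2 aliquot initiated turnover, followed kinetically by NADPH fluorescence.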
Numbers without * were called inactive; i = inactive; ? = inconclusive; · = not tested or not shown; & = joins results of further samples; [ ] = dose if it differs, or a comment. Potency is the fitted concentration of half-maximal effect. This is a subset; the hit share may differ from the screen's.

entry | SMILES | LT uptake inh | Prx2 Sm inh
1 | O=C1C=C[C@@H](O)[C@H]2[C@@H]3C(=O)N(c4cccc(Oc5ccccc5)c4)C(=O)[C@@H]3CC[C@H]12 | 0%[8 µM] | ·
2 | c1ccc2c(c1)CCCN2c1nc2ccccc2n2cnnc12 | -27% | >57
3 | CCn1cc(C(=O)NCc2ccc3c(c2)OCO3)c(=O)c2ccc(C)nc21 | -5% | >57
4 | O=C(NC1CCCCC1)N1CCN(CCc2ccccc2)CC1 | -5% | >57
5 | N#CCCN1CCN(C(=S)c2ccc(-c3ccc(Cl)c(Cl)c3)o2)CC1 | ? | >57
6 | Cn1c(/N=C/c2c[nH]c3ccccc23)nc2ccccc21 | · | >57
7 | COc1ccc(C2C(C#N)=C(N)Oc3cc4c(cc32)OCO4)cc1 (configuration not stated) | 5% | >57
8 | Cn1c(=O)c(C(=O)Nc2cccnc2)c(O)c2ccccc21 | 2% | >57
9 | C[C@H](N)C(=O)O | -4% | >57
10 | O=C(NCc1ccc2c(c1)OCO2)c1ccc(NS(=O)(=O)c2ccc3c(c2)OCCO3)cc1 | -9% | >57
11 | O=C(CCSCc1ccccc1F)N1CCN(c2ccccn2)CC1 | 7% | >57
12 | NC(N)=NC[C@@H]1CCCCCCN1 | -9%[8 µM] | >57
13 | COc1cc(OC)cc(C(=O)Nc2ccc(S(=O)(=O)N(C)C)cc2)c1 | -14% | ?
14 | Cc1csc(NC(=O)c2nc3nccc(C)n3n2)n1 | -1% | >57
15 | CC1CCCN(c2nc3ccsc3c(=O)s2)C1 (configuration not stated) | 0% | >57
16 | CC1CCCN(C(=O)COC(=O)c2n[nH]c3ccccc23)C1 (configuration not stated) | ? | >57
17 | CCOC(=O)c1ccccc1NC(=O)c1ccccc1SC | -14% | >57
18 | C=Cc1ccc([C@H]2N[C@@H](C(=O)O)CC[C@@H]2C)cc1 | -3%[1.6 µM] | ·
19 | COc1ccccc1NC(=O)N(c1c(N)n(Cc2ccccc2)c(=O)[nH]c1=O)C1CCCC1 | 1% | >57
20 | Cn1c(=O)c2cc(S(=O)(=O)N3CCN(c4cccc(C(F)(F)F)c4)CC3)ccc2n(C)c1=O | 2% | >57
21 | COc1ncnc(OC)c1NC(=O)c1ccc(F)cc1 | 9% | >57
22 | COc1ccc(OCCC(=O)NC2=NCCS2)cc1 | 14% | >57
23 | COc1ccc(-n2c(Cn3c(=O)sc4ccccc43)nnc2SCC(=O)N2CCOCC2)cc1 | ? | >57
24 | CN1CCN(c2nc(N3CCN(CCO)CC3)nc3ccccc23)CC1 | 5% | >57
25 | CCn1c(=O)c(C(=O)Nn2c(C)nc3ccccc3c2=O)c(O)c2ccccc21 | -13% | >57

The closing two records of the section above are carried over, then new ones follow.
entry | SMILES | LT uptake inh | Prx2 Sm inh
24 | CN1CCN(c2nc(N3CCN(CCO)CC3)nc3ccccc23)CC1 | 5% | >57
25 | CCn1c(=O)c(C(=O)Nn2c(C)nc3ccccc3c2=O)c(O)c2ccccc21 | -13% | >57
26 | COC(=O)c1ccc(N=c2sc(C(=O)OC)cc(=O)n2C)cc1 | 12% | >57
27 | O=S(=O)(NCCOc1cccc2cccnc12)c1ccc(F)cc1 | -9% | >57
28 | COc1cc(C2CC(=O)c3cnc(N4CCN(Cc5ccccc5)CC4)nc3C2)cc(OC)c1OC (configuration not stated) | 0% | >57
29 | Cc1ccc2[nH]c(=O)c(CN(CC3CCCO3)S(=O)(=O)c3c(C)ccc4nsnc34)cc2c1 (configuration not stated) | -2% | >57
30 | CN1CCN(S(=O)(=O)c2ccc(N(C)Cc3cccs3)nc2)CC1 | -13% | >57
31 | CC(c1ccc(Br)cc1)N1CC23C=CC(O2)C(C(=O)O)C3C1=O (configuration not stated) | -6% | >57
32 | Cc1cc(NC(=O)COC(=O)CSCc2ccc(Cl)c(Cl)c2)no1 | 0% | >57
33 | C=CCNC(=O)c1ccccc1NS(=O)(=O)c1ccc(SC)cc1 | 5% | >57
34 | Nc1ccc(-n2nnnc2-c2ccco2)cc1 | 2% | >57
35 | ClC(Cl)=C(c1ccc(Cl)cc1)c1ccc(Cl)cc1 | ? | ·
36 | Cc1ccc2cc(C(c3nnnn3C3CCCC3)N3CCOCC3)c(=O)[nH]c2c1C (configuration not stated) | ? | >57
37 | COc1ccccc1N1CCN(CCCC(=O)c2ccc(F)cc2)CC1 | -17% | >57
38 | Cc1[nH]c2ccccc2c1CC(=O)O | ? | ?
39 | CCN(CC)S(=O)(=O)c1cccc(C(=O)NCCCN2CCOCC2)c1 | 16% | >57
40 | CCOC(=O)c1snc2c(=O)[nH]cnc12 | -5% | >57
41 | CC(NC(=O)c1ccc(CS(=O)(=O)Cc2ccccc2F)o1)c1ccc2c(c1)OCCO2 (configuration not stated) | ? | >57
42 | CC(=O)N1CCN(c2ccc(OC[C@@H]3CO[C@@](Cn4ccnc4)(c4ccc(Cl)cc4Cl)O3)cc2)CC1 | 7%[3.58 µM] | >57&>57
43 | COC(=O)c1ccc(CSc2ccc3nnc(-c4cccc(F)c4)n3n2)o1 | 2% | >57
44 | Cc1c(C(=O)O)cccc1[N+](=O)[O-] | 5% | ·
45 | COCCCNC(=O)c1ccc(CS(=O)(=O)Cc2cccc(C)c2)o1 | -2% | >57
46 | c1ccc(Nc2ccc(Nc3ccccc3)cc2)cc1 | -20% | ·
47 | CC(C)[C@H]1C(=O)N2CCC[C@@H]2[C@]2(O)O[C@@](NC(=O)[C@H]3C=C4c5cccc6[nH]cc(c56)C[C@H]4N(C)C3)(C(C)C)C(=O)N12 | ? | >57
48 | Nc1nc(N)c(N=Nc2ccc([As](=O)(O)O)cc2)c(=O)[nH]1 | -6%[8 µM] | i
49 | CC(=O)[C@H]1CC[C@@H]2[C@]1(C)CC=C1[C@]23C=C[C@]2(C[C@H](O)CC[C@@]12C)[C@H](C(=O)O)[C@@H]3C(=O)O | -4%[8 µM] | >57
50 | CC(=O)NC1CC2CCCC(C1)N2CC(=O)N1CCCc2ccccc21 (configuration not stated) | -24% | >57

entry | SMILES | LT uptake inh | Prx2 Sm inh
51 | Cc1ccc(S(=O)(=O)N2CCCC2)cc1S(=O)(=O)N1CCCC1 | -5% | >57
52 | CCCCCCCCCCCCCCCC(=O)C(F)(F)F | ? | >57
53 | CCn1c(C)nc2cc(S(=O)(=O)N3CCCCC3)ccc21 | 3% | >57
54 | Brc1cccc(-c2nnc(-c3ccccc3)o2)c1 | -10% | >57
55 | CCC(=O)n1nc(-c2ccco2)nc1N | ? | >57
56 | O=C(Nc1cccc(F)c1)C1CC(=O)N(c2ccc(Br)cc2)C1 (configuration not stated) | -7% | >57
57 | CCCCN(C)CCNC(=O)Cn1ncc2c(=O)oc3ccc(C)cc3c21 | -6% | >57
58 | COC(=O)c1cc2ccsc2n1CC(=O)Nc1cc(Cl)ccc1OC | -24% | >57
59 | Cn1c2ccccc2c2c(C(=O)N3CCN(c4ccccc4)CC3)cn(C3CCCC3)c(=O)c21 | ? | >57
60 | O=C(c1n[nH]c(=O)c2ccccc12)N1CCN(c2ccccc2)CC1 | 13% | >57
61 | C[C@@H]1C=C[C@](Cc2ccccc2)(C(=O)NCCN2CCOCC2)N1C(=O)c1ccccc1 | -7% | ·
62 | CCOc1ccccc1CNC(=O)C1CCN(c2nc3ccccc3o2)CC1 | -8% | >57
63 | CCO/C=C/C(O)(CNC(=O)COc1ccccc1F)C(F)(F)F (configuration not stated) | -6% | >57
64 | CN1CCN(CCCC(=O)c2ccc(F)cc2)CC1 | -12% | >57
65 | COc1cccc(Nc2ncc(C(=O)O)c3ccccc23)c1 | 9% | >57
66 | O=C(CSCc1ccco1)c1cccs1 | -7% | >57
67 | CCOCCn1c(CN(Cc2ccccc2)Cc2ccccc2)nc2c1c(=O)[nH]c(=O)n2C | 4% | >57
68 | C[C@@H](C(=O)Nc1ccc2ccccc2c1)[C@H]1C[C@]1(C)[C@H](NS(=O)(=O)c1ccc(-c2ccccc2)cc1)c1ccccc1 | ? | >57
69 | O=C(NCc1ccccc1)N[C@@H](Cc1c[nH]c2ccccc12)C(=O)O | -1% | >57
70 | Cc1nc2ccccc2n1CC(O)Cn1c(C(F)(F)F)nc2ccccc21 (configuration not stated) | 3% | >57
71 | CO/N=C\[C@@H](NS(=O)(=O)c1ccc(C)cc1)[C@H](C)/C=C\CC(=O)OC | 24%[8 µM] | ·
72 | Cc1ccccc1CN1CCN(CC(=O)NCc2ccco2)C1=O | -2% | >57
73 | O=C(CSc1nnc(-c2cccs2)n1-c1ccccc1)NCc1ccco1 | 0% | >57
74 | CCC(=O)c1ccccc1OCCCN1C(=O)NC(C)(C)C1=O | -1% | >57
75 | O=C(c1ccccc1)N1CCCCC(S(=O)(=O)c2ccccc2)C1=O (configuration not stated) | 18% | >57

Entries of single compounds, quoted from the list. Order of screens: LT uptake inh, Prx2 Sm inh
`C[C@@H]1C=C[C@](Cc2ccccc2)(C(=O)NCCN2CCOCC2)N1C(=O)c1ccccc1` is listed as -7%, ·
`CO/N=C\[C@@H](NS(=O)(=O)c1ccc(C)cc1)[C@H](C)/C=C\CC(=O)OC` is listed as 24%[8 µM], ·

Remaining list, next part
entry | SMILES | LT uptake inh | Prx2 Sm inh
76 | COC(=O)c1ccccc1NC(=O)NCC1CCCO1 (configuration not stated) | 6% | ·
77 | Cc1cc(NCCCN2CCOCC2)n2nc(C)c(-c3ccccc3)c2n1 | -13% | >57
78 | Cc1ncc(CSc2nnnn2-c2ccccc2)c(N)n1 | 12% | >57
79 | Cc1cccc(C)c1NC(=O)CSc1nnc(-c2ccncc2)n1Cc1ccco1 | 2% | >57
80 | COc1ccc(COC(=O)N/N=C2/C[C@@H](O)[C@@H](O)[C@@H]3[C@@H]4C(=O)N(C(C)(C)C)C(=O)[C@H]4CC[C@H]23)cc1 | 4%[0.32 µM] | ·
81 | COc1cccc(C(=O)N2CCN(Cc3ccccc3C(F)(F)F)CC2)c1 | -2% | >57
82 | CC(C)N=C(NC#N)SCC(=O)NC(C)(C)C | · | >57
83 | O=C1C=C(NCCN2CCOCC2)CC(c2ccccc2)C1 (configuration not stated) | 3% | >57
84 | CCOC(=O)C1=C(CNCc2ccc(C)cc2)NC(=O)NC1c1ccc(OC)cc1 (configuration not stated) | -9% | >57
85 | CCCCSc1nnc(CCC)n1N | ? | >57
86 | CCOC(=O)c1c(C)[nH]c(C(=O)CN2C(=O)NC(C)(c3ccc(C)cc3)C2=O)c1C (configuration not stated) | ? | ·
87 | CC1C(=O)CCC1(C(=O)O)c1ccccc1 (configuration not stated) | 12% | >57
88 | O=C(c1cc2c(s1)CCCC2)n1cccn1 | 24% | >57
89 | CSCCC(C(=O)Nc1ccc2c(c1)OCO2)N1C(=O)c2ccccc2C1=O (configuration not stated) | 13% | >57
90 | CCN1CCN(CCCNC(=O)c2ccc3c(c2)NC(=O)c2ccccc2S3)CC1 | ? | >57
91 | Clc1ccccc1OCc1nn2c(-c3ccncc3)nnc2s1 | 1% | >57
92 | CCCS(=O)(=O)N1CCC(C(=O)N2CCN(Cc3ccccc3)CC2)CC1 | -9% | >57
93 | CC(=O)N1CCc2cc(S(=O)(=O)N3CCc4ccccc4C3)ccc21 | 1% | >57
94 | C/C(N)=C(/C#N)C(=O)COC(=O)C1Cc2ccccc2CN1S(C)(=O)=O (configuration not stated) | 1% | ·
95 | O=C(O)CNS(=O)(=O)c1cc(Cl)c(Cl)cc1Cl | · | >57
96 | Cc1cc(NC(=O)c2cc(CC(C)C)on2)no1 | -17% | >57
97 | CCOCCCNS(=O)(=O)c1ccc2c(c1)CCN2C(C)=O | 4% | >57
98 | O=C(Nc1ccc(OC(=O)N2CCCC2)cc1)N1CCOCC1 | 12% | >57
99 | CC(C)c1cccc(C(C)C)c1O | 4% | >57&>57
100 | CCc1ccc(CCC(=O)Nc2sc3c(c2C#N)CCCC3)o1 | ? | >57

entry | SMILES | LT uptake inh | Prx2 Sm inh
101 | Cc1cc(C(=O)N2CC(C)CC(C)C2)n(-c2ccccc2)n1 (configuration not stated) | -2% | >57
102 | O=C(CSc1nnc(Nc2ccccc2F)s1)NCc1ccco1 | 5% | >57
103 | COc1cc(C(=O)Nc2cccc(-c3nc4cc(C)ccc4o3)c2C)cc(OC)c1OC | -15% | ·
104 | O=C(CCCN1C(=O)c2cccnc2C1=O)N1CC(=O)N(CCc2ccccc2)C(=O)C1 | 6% | >57
105 | Cc1cc(N2CCOCC2)nc2cc(O)ccc12 | -1% | >57
106 | Cc1c(Cl)cccc1NC(=O)Cn1cccc1 | 1% | >57
107 | C[As+](C)(c1ccc(Br)c([N+](=O)[O-])c1)c1ccc(Br)c([N+](=O)[O-])c1.O=[N+]([O-])O | 0%[8 µM] | ?
108 | C=CC(O)(C#CCN(CC)CC)c1ccccc1 (configuration not stated) | -9% | >57
109 | Cc1c(Cc2ccccc2)sc(N)c1C(N)=O | -20% | >57
110 | COCCn1c(=O)c(-c2cccc(C#N)c2)nc2cnc(N3CCOCC3)nc21 | ? | >57
111 | O=C1Nc2cc(C(=O)N3CCOCC3)ccc2SC1N1CCOCC1 (configuration not stated) | ? | >57
112 | CC(=O)Nc1ccc(C(=O)c2ccccc2)cc1 | -8% | ·
113 | Cn1c(=S)n(/N=C/c2ccc3c(c2)OCO3)c2ccccc21 | · | >57
114 | CCCc1cc(C(=O)NCc2ccccc2)no1 | 7% | >57
115 | O=C(CSc1nnc(COc2cccc3cccnc23)o1)N1CCc2ccccc21 | 5% | >57
116 | Cc1noc(C)c1C(=O)OCC(=O)NCCC1=CCCCC1 | -18% | >57
117 | O=c1n(CCCN2CCN(c3cccc(Cl)c3)CC2)nc2ccccn12 | -1%[3.58 µM] | >57&>57
